PKD1 kinase inh = inhibitors of human PKD1 kinase, biochemical, fluorescence polarization; Serine/threonine-protein kinase D1 (Homo sapiens), Q15139; 200,000 tested, 0.056% active; PKD1 kinase fluorescence polarization assay; inhibition, %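 (about 10 µM by stock and volumes)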;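 active = inhibition of 50% or more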;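 note: controls were vehicle for no effect and a reference inhibitor for full effect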
Target sequence (Q15139 whole entry, looked up): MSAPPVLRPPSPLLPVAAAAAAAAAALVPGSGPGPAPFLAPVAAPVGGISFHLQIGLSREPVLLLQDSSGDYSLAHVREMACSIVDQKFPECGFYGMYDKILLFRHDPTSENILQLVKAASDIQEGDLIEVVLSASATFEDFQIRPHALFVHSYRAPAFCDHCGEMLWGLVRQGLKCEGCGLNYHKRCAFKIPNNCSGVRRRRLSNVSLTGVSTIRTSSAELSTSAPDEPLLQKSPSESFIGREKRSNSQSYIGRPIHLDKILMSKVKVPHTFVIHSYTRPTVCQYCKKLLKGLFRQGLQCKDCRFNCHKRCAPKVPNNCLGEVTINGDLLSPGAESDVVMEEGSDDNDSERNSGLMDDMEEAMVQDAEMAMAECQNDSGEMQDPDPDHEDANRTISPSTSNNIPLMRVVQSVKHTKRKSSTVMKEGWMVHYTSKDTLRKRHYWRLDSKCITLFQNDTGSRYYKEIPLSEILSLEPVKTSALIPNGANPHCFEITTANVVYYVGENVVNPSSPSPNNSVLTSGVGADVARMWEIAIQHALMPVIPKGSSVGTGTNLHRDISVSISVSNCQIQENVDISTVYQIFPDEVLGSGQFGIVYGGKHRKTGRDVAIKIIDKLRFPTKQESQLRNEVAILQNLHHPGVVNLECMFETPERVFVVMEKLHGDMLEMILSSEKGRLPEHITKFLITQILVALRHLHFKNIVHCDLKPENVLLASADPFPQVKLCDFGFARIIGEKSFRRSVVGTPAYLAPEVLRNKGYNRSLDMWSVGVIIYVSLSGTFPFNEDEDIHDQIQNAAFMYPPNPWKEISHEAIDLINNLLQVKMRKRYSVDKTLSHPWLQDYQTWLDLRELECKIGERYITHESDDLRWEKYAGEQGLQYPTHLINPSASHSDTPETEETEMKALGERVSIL
RGS16-Gao = modulators of RGS16 binding to Galphao, primary screen, biochemical, human proteins, multiplexed bead flow cytometry; AID 1441, 2008; 220,000 tested, 0.38% active; Regulator of G-protein signaling 16 (Homo sapiens) + Guanine nucleotide-binding protein …; bead-based flow cytometry RGS16-Galphao binding, fluorescence; actives lie on both sides; binding response (% of control), % at 10 µM;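 active = below 25% or above 175%, edge rows of some plates excepted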;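 note: Galphao activated by GDP with aluminum fluoride before binding; 100% = wells without compound and 0% = beads without RGS; some results beyond the cut were filed as inactive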
HSV augment = enhancers of HSV replication in host cells, fold increase, host cell viability; AID 1956, 2009; maximum fold increase; HSV replication augmentation in cells; 220,000 tested, 0.005% active;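 active = peak rise of 1.5-fold or more in the series; tested in PC3 cells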;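 note: first round at 10 µM; read as green reporter fluorescence; hits show the peak of a series up to 25 µM; 1 = signal of infected wells without compound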
INS promoter inh = inhibitors of insulin promoter-driven GFP, primary screen, imaging, TRM-6 cells (human fetal islet line), eGFP reporter, cell count; 130,000 tested, 0.9% active; reporter expression induced with tamoxifen; AID 1273, 2008; inhibition, % at 2 µM;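 active = inhibition above the mean plus 3 SD, with well images judged a real hit on visual review, cut at about 60% in these data, passing the limit was not always enough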
GALR2 agonist = GALR2 receptor agonists, primary screen, cell-based. AID 803, 2007. activation, %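 (tested at 5 µM)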. GALR2-expressing cells, agonist activation read-out. 140,000 tested, 0.48% active;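 active = above mean plus 3 SD of all compounds, about 5% in these data, not always enough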;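 note: 0% = vehicle buffer wells and 100% = reference agonist at full effect; tested in CHO reporter cells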
INS promoter inh cell count = also measured in INS promoter inh; calls as there; normalized cell count, %; measured here: cell count, toxicity; reference of the scale not given here;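 cells exposed to compound for 48 h; stained nuclei by imaging scaled within each plate; lower means fewer cells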
HSV augment primary fold = second read-out of HSV augment, no call of its own (marks repeat the call); fold increase; compound at 10 µM; measured here: primary screen fold increase 10 uM; tested in PC3 cells;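 GFP signal in the first replicate; 1 = infected wells without compound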
An asterisk follows results filed as active.

Screening CCCC(=O)Nn1cnc2c(c1=O)C1(CCCCC1)Cc1ccccc1-2 returned PKD1 kinase inh 5, RGS16-Gao 103, HSV augment inactive, INS promoter inh -11, GALR2 agonist -0.8, INS promoter inh cell count 109 and HSV augment primary fold 0.94.
`COc1ccc2c(c1)[nH]c1c(Cl)ncnc12` gave PKD1 kinase inh 15, RGS16-Gao 100, HSV augment inactive, GALR2 agonist -1.7 and HSV augment primary fold 0.94.
`CCC1CCCCN1C(=S)Nc1cccc(S(=O)(=O)N(C)C)c1` (stereo unspecified) gave PKD1 kinase inh -2, RGS16-Gao 102, HSV augment inactive and HSV augment primary fold 0.9.
Cc1ccc(Nc2nc(-c3sc(NC(=O)c4ccc([N+](=O)[O-])cc4)nc3C)cs2)cc1 was read as PKD1 kinase inh -18, RGS16-Gao 102, HSV augment inactive, INS promoter inh 43, GALR2 agonist -1.7, INS promoter inh cell count 75 and HSV augment primary fold 1.
For FC(F)(F)COc1nc(N/N=C/c2cccnc2)nc(N2CCCCC2c2ccccn2)n1 (stereo unspecified) the results were PKD1 kinase inh 0, RGS16-Gao 98, HSV augment inactive and HSV augment primary fold 1.1.
Screening Cn1cccc1/C=N/N1CCN(c2ccccn2)CC1 returned PKD1 kinase inh 1, RGS16-Gao 75, HSV augment inactive, INS promoter inh 15, GALR2 agonist -1.5, INS promoter inh cell count 147 and HSV augment primary fold 0.98.
COc1ccc(C)cc1S(=O)(=O)N(C)CC(=O)N1CCN(C)CC1 was read as PKD1 kinase inh 1, RGS16-Gao 186, INS promoter inh 7, GALR2 agonist -2.3 and INS promoter inh cell count 104.
For Cc1ccsc1C(=O)Nc1ccc(C(=O)O)cc1 the results were PKD1 kinase inh 0, RGS16-Gao 162, HSV augment inactive, INS promoter inh -5, GALR2 agonist -1.2, INS promoter inh cell count 87 and HSV augment primary fold 1.1.
For CCOc1ccc2nc(NCCCNS(=O)(=O)c3ccc(F)cc3)c(C#N)cc2c1 the results were PKD1 kinase inh -9, RGS16-Gao 101, HSV augment inactive, INS promoter inh -106, GALR2 agonist 7.0, INS promoter inh cell count 104 and HSV augment primary fold 0.69.
For CCN(C(=O)c1cc2c(=O)[nH]c3ccc(C)cc3c2s1)c1ccc(F)cc1 the results were RGS16-Gao 99, HSV augment inactive and HSV augment primary fold 0.82.
For O=C(NC(=O)c1ccccc1O)c1ccc(C(F)(F)F)cc1 the results were RGS16-Gao 94, HSV augment inactive and HSV augment primary fold 0.97.
For O=C(O)CNC(=S)N(Cc1ccccc1Cl)C1CCCCC1 the results were PKD1 kinase inh -4, RGS16-Gao 89, HSV augment inactive, INS promoter inh 41, INS promoter inh cell count 86 and HSV augment primary fold 0.91.

An excerpt from further up, for reference:
For FC(F)(F)COc1nc(N/N=C/c2cccnc2)nc(N2CCCCC2c2ccccn2)n1 (stereo unspecified) the results were PKD1 kinase inh 0, RGS16-Gao 98, HSV augment inactive and HSV augment primary fold 1.1.
Screening Cn1cccc1/C=N/N1CCN(c2ccccn2)CC1 returned PKD1 kinase inh 1, RGS16-Gao 75, HSV augment inactive, INS promoter inh 15, GALR2 agonist -1.5, INS promoter inh cell count 147 and HSV augment primary fold 0.98.
COc1ccc(C)cc1S(=O)(=O)N(C)CC(=O)N1CCN(C)CC1 was read as PKD1 kinase inh 1, RGS16-Gao 186, INS promoter inh 7, GALR2 agonist -2.3 and INS promoter inh cell count 104.
For Cc1ccsc1C(=O)Nc1ccc(C(=O)O)cc1 the results were PKD1 kinase inh 0, RGS16-Gao 162, HSV augment inactive, INS promoter inh -5, GALR2 agonist -1.2, INS promoter inh cell count 87 and HSV augment primary fold 1.1.

Later entries
Screening O=C(/C=C/c1ccco1)Nc1ccc2nn(-c3ccccc3)nc2c1 returned PKD1 kinase inh -14, RGS16-Gao 97, HSV augment inactive, INS promoter inh -10, GALR2 agonist -1.3, INS promoter inh cell count 102 and HSV augment primary fold 1.
Screening CN(C)S(=O)(=O)c1cc(NC(=O)CN2CCCc3ccccc32)ccc1Cl returned PKD1 kinase inh -2, RGS16-Gao 107, HSV augment inactive, INS promoter inh -42, INS promoter inh cell count 108 and HSV augment primary fold 1.
For CCn1c(C(=O)OC)cc2c1ccn2-c1ccc(F)cc1 the results were PKD1 kinase inh -4, RGS16-Gao 102, HSV augment inactive, INS promoter inh 0, GALR2 agonist 1.9, INS promoter inh cell count 63 and HSV augment primary fold 0.78.
Cc1cc2c(=O)n(CC(=O)NCC(=O)N3CCN(Cc4ccccc4)CC3)cnc2s1 was read as PKD1 kinase inh -5, RGS16-Gao 101, HSV augment inactive, INS promoter inh 31, GALR2 agonist -1.1, INS promoter inh cell count 106 and HSV augment primary fold 0.85.
`CC(C)OC(=O)/C(C#N)=C\c1cccnc1` gave PKD1 kinase inh 5, RGS16-Gao 97, HSV augment inactive and HSV augment primary fold 1.
COc1cccc(/C=C/C(=O)OCC(=O)Nc2ccc(Cl)c(S(=O)(=O)N(C)C)c2)c1 was read as PKD1 kinase inh -8, RGS16-Gao 106, HSV augment inactive, INS promoter inh 0, INS promoter inh cell count 81 and HSV augment primary fold 0.91.
Screening O=C(COC(=O)c1ccccc1Oc1ccccc1)NCc1ccco1 returned PKD1 kinase inh -7, RGS16-Gao 92, HSV augment inactive, GALR2 agonist -1.4 and HSV augment primary fold 0.97.
Screening O=C(O)CCC(=O)Nc1nc2ccccc2s1 returned PKD1 kinase inh 3, RGS16-Gao 112, HSV augment inactive, INS promoter inh -33, GALR2 agonist -0.5, INS promoter inh cell count 111 and HSV augment primary fold 0.96.
Screening Cc1c(/C=N/NC(=O)c2ccc(O)cc2)c2ccccn2c1C(=O)c1ccc(F)cc1 returned PKD1 kinase inh 2, RGS16-Gao 100, HSV augment inactive, INS promoter inh 19, GALR2 agonist -0.9, INS promoter inh cell count 74 and HSV augment primary fold 0.9.
O=C(Cn1nc(-c2cccc(Cl)c2)ccc1=O)Nc1ccc(C(=O)NC2CC2)cc1 was read as PKD1 kinase inh -6, RGS16-Gao 117, HSV augment inactive and HSV augment primary fold 0.92.
CCOC(=O)CNC(=S)N(Cc1cccs1)C1CCCCC1 was read as PKD1 kinase inh -8, RGS16-Gao 115, HSV augment inactive, INS promoter inh -34, GALR2 agonist -0.6, INS promoter inh cell count 63 and HSV augment primary fold 1.
`COCc1nc2ccccc2n1Cc1ccccc1` gave PKD1 kinase inh -1, RGS16-Gao 96, HSV augment inactive, INS promoter inh 20, GALR2 agonist 2.2, INS promoter inh cell count 95 and HSV augment primary fold 0.84.
Screening Cc1ccccc1C=Nc1ccccc1C(N)=O returned PKD1 kinase inh 4, RGS16-Gao 157, HSV augment inactive, GALR2 agonist -0.9 and HSV augment primary fold 0.64.
Cc1c(C(=O)Oc2ccc(F)cc2)sc2ncn(Cc3cccc(F)c3)c(=O)c12 was read as PKD1 kinase inh -3, RGS16-Gao 107, HSV augment inactive, INS promoter inh 8, GALR2 agonist -1.0, INS promoter inh cell count 117 and HSV augment primary fold 0.82.
For NNc1nc(-c2ccccc2)c2ccccc2n1 the results were PKD1 kinase inh 3, RGS16-Gao 104, HSV augment inactive, INS promoter inh -21, INS promoter inh cell count 129 and HSV augment primary fold 1.
Screening OCCN(/C=N/c1nc(-c2ccc(Br)cc2)cs1)CCO returned PKD1 kinase inh 0, RGS16-Gao 186, HSV augment inactive, INS promoter inh -7, GALR2 agonist 0.1, INS promoter inh cell count 112 and HSV augment primary fold 1.1.
`O=C1CC(SC(=Nc2ccccc2)Nc2ccccc2)C(=O)N1c1ccc(Cl)c(Cl)c1` (stereo unspecified) gave PKD1 kinase inh -8, RGS16-Gao 74, HSV augment inactive, INS promoter inh -66, GALR2 agonist 0.6, INS promoter inh cell count 72 and HSV augment primary fold 0.88.
`Cn1nnc(NC(=O)/C=C/c2ccco2)n1` gave RGS16-Gao 99, HSV augment inactive and HSV augment primary fold 1.1.
O=C(NCc1ccccn1)c1ccc(/C=N/O)nc1 was read as PKD1 kinase inh 0, RGS16-Gao 105, HSV augment inactive, INS promoter inh 5, GALR2 agonist -4.1, INS promoter inh cell count 138 and HSV augment primary fold 0.93.
Screening Cc1ccc(C2CC(c3ccc(NS(C)(=O)=O)cc3)=NN2C(=O)c2ccco2)cc1 (stereo unspecified) returned PKD1 kinase inh 5, RGS16-Gao 107, HSV augment inactive, GALR2 agonist 0.7 and HSV augment primary fold 0.79.
For CCOc1ccccc1Oc1c(C)oc2c(CN3CCN(CCO)CC3)c(O)ccc2c1=O the results were PKD1 kinase inh -3, RGS16-Gao 114, HSV augment inactive, INS promoter inh 46, GALR2 agonist -1.3, INS promoter inh cell count 278 and HSV augment primary fold 1.
For CC1Oc2ccccc2OC1(O)c1ccccn1 (stereo unspecified) the results were PKD1 kinase inh -2, RGS16-Gao 41, HSV augment inactive, GALR2 agonist -1.7 and HSV augment primary fold 1.1.
Cc1ccccc1NC(=O)c1cccc(Cn2cc(Br)c([N+](=O)[O-])n2)c1 was read as PKD1 kinase inh -1, RGS16-Gao 103, HSV augment inactive, GALR2 agonist 0.5 and HSV augment primary fold 0.87.
CCSc1ccc(NC(=O)c2cccnc2)cc1 was read as PKD1 kinase inh -1, RGS16-Gao 96, HSV augment inactive, INS promoter inh -5, GALR2 agonist -1.4, INS promoter inh cell count 100 and HSV augment primary fold 0.75.
Screening COc1ccc(NC(=O)c2cncc(Br)c2)cc1S(N)(=O)=O returned PKD1 kinase inh -4, RGS16-Gao 99, HSV augment inactive, INS promoter inh 7, INS promoter inh cell count 128 and HSV augment primary fold 0.85.
For Cc1cc(C(=O)OCC(=O)NCc2cccs2)c2ccccc2n1 the results were PKD1 kinase inh -9, RGS16-Gao 94, HSV augment inactive, INS promoter inh -33, INS promoter inh cell count 171 and HSV augment primary fold 0.81.
`COc1ccc(OCC(=O)NNC(=O)c2nn(C)c(=O)c3ccccc23)cc1` gave PKD1 kinase inh -6, RGS16-Gao 107, HSV augment inactive, INS promoter inh 22, GALR2 agonist -0.3, INS promoter inh cell count 105 and HSV augment primary fold 0.89.
For CCCN(Cc1ccccc1)S(=O)(=O)c1ccc(N2C(=O)CCC2=O)cc1 the results were PKD1 kinase inh 9, RGS16-Gao 102, HSV augment inactive, INS promoter inh 55, GALR2 agonist -1.1, INS promoter inh cell count 74 and HSV augment primary fold 0.89.
`CCOc1ccc(N2C(=O)CC(NCC3CCCO3)C2=O)cc1` (stereo unspecified) gave PKD1 kinase inh 0, RGS16-Gao 107, HSV augment inactive and HSV augment primary fold 1.2.
For CCC(C)C(NC(=O)C(C)NC(=O)CNC(=O)CNC(=O)OCc1ccccc1)C(=O)OC (stereo unspecified) the results were PKD1 kinase inh -3, RGS16-Gao 105, HSV augment inactive, INS promoter inh -343, GALR2 agonist -3.3, INS promoter inh cell count 48 and HSV augment primary fold 1.
Screening Cc1cnc(C(=O)NCc2ccc(Cl)cc2Cl)cn1 returned PKD1 kinase inh 1, RGS16-Gao 107, HSV augment inactive and HSV augment primary fold 0.87.
`O=C(NCc1ccco1)c1sc2cc(F)ccc2c1Cl` gave PKD1 kinase inh -11, RGS16-Gao 105, HSV augment inactive, INS promoter inh -190, GALR2 agonist 0.1, INS promoter inh cell count 75 and HSV augment primary fold 1.1.
For CC(=O)Nc1ccc(C2=NNC(=NCC3CCCO3)SC2)cc1 (stereo unspecified) the results were PKD1 kinase inh -2, RGS16-Gao 89, HSV augment inactive, GALR2 agonist -1.1 and HSV augment primary fold 1.1.
For CN(CCC#N)C(=O)COC(=O)c1ccc2[nH]c3c(c2c1)CCCC3 the results were PKD1 kinase inh -6, RGS16-Gao 103, HSV augment inactive and HSV augment primary fold 0.87.
CCOc1ccc(CC(C(N)=O)C(N)=O)cc1 was read as PKD1 kinase inh -5, RGS16-Gao 103, HSV augment inactive and HSV augment primary fold 0.94.
Screening CC(C)Cn1cc(C(=O)NCC2CCCO2)c2c3ccccc3n(C)c2c1=O (stereo unspecified) returned PKD1 kinase inh -6, RGS16-Gao 101, HSV augment inactive, INS promoter inh 25, GALR2 agonist -2.6, INS promoter inh cell count 124 and HSV augment primary fold 0.83.
CCC1(CC)NC(=O)N(CC(=O)OCC(=O)Nc2sccc2C#N)C1=O was read as PKD1 kinase inh 2, RGS16-Gao 101, HSV augment inactive and HSV augment primary fold 1.1.
Cn1c(N)c(C(=O)COC(=O)CCC(=O)c2cccs2)c(=O)n(C)c1=O was read as PKD1 kinase inh 5, RGS16-Gao 94, HSV augment inactive, INS promoter inh 0, GALR2 agonist -1.1, INS promoter inh cell count 95 and HSV augment primary fold 1.1.

Compound activity deposited in PubChem by several laboratories.
